# Screening results deposited in PubChem by Broad Institute.
# rRNA inh HTS: inhibitors of bacterial rRNA selective over humanized ribosomes; 350,000 compounds, 1.6% hits; GFP signal change (wild-type ribosome), % (test concentration not listed); E. coli WT GFP vs humanized-ribosome RFP mutants, fluorescence, 24 h; active compounds read low; DMSO median 0, no signal -100;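 active = significant combined selectivity score with lowered wild-type GFP, culture density cut under 30%, mutant RFP and density less affected; inactive = any of these conditions unmet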; note: one replicate is shown; some compounds called inactive have numbers as strong as hits
# FGF22 binding: shifts melting point of recombinant human FGF22 | Q9HCT0 | recombinant FGF22 thermal shift, SYPRO orange fluorescence; percent of sucrose octasulfate shift, DMSO zero | calls only at 9.99 µM | 340,000 compounds, 1.5% hits | AID 651658;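 active = melting point raised past a set limit in the mean and every replicate; three in four hits are not shown here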
# Target sequence (Q9HCT0 whole entry, looked up): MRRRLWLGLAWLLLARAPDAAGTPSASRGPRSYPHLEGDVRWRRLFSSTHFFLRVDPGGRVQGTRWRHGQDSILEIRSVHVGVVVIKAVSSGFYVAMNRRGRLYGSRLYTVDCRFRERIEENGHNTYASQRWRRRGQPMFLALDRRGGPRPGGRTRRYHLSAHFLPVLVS
# rRNA inh HTS OD600: further read-out of rRNA inh HTS, marked with its call; OD600 change, %; measured here: OD600 growth;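 optical density of the mix in the first replicate; 0 = DMSO median and -100 = no signal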
# rRNA inh HTS RFP: further read-out of rRNA inh HTS, marked with its call; RFP signal change, %; measured here: RFP humanized mutant strains;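 first replicate; 0 = DMSO median and -100 = no signal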
# * = called active by the depositor; i = inactive. Not all compounds are listed; rates above refer to the full screens.
# Abbreviations: A = rRNA inh HTS; B = rRNA inh HTS OD600; C = rRNA inh HTS RFP; D = FGF22 binding
C[C@H](O)C#Cc1ccc2c(c1)O[C@H](CN(C)C(=O)C1CC1)[C@@H](C)CN([C@@H](C)CO)S2(=O)=O
  A = 6	B = -5	C = 1.4	D = i

C[C@@H]1CN([C@@H](C)CO)C(=O)c2cc(NS(=O)(=O)c3ccc(F)cc3)ccc2O[C@H]1CN(C)Cc1ccc2c(c1)OCO2
  A = -3	B = -1	C = -2.9	D = i

CCCN(C)C[C@H]1Oc2ncc(C#CC3CCCCC3)cc2C(=O)N([C@H](C)CO)C[C@H]1C
  A = 1	B = -4	C = -4.4	D = i

COc1ccc(NC(=O)Nc2ccc3c(c2)C(=O)N([C@@H](C)CO)C[C@@H](C)[C@H](CN(C)C(=O)NC(C)C)O3)cc1
  A = 0	B = 6	C = 0.2	D = i

CN1OC[C@@H]2CN(CC3CCCCC3)[C@H](c3ccc(-c4ccc(C#N)cc4)cc3)C[C@@H]21
  A = 6	B = 12	C = 2.9	D = i

O=C(C[C@H]1C[C@@H]2c3cc(NC(=O)NC4CCCC4)ccc3O[C@@H]2[C@H](CO)O1)NCCc1ccccc1
  A = 4	B = 5	C = 2.3	D = i

C[C@H](CO)N1C[C@H](C)[C@@H](CN(C)C(=O)Nc2ccc(F)cc2)Oc2ccc(NS(=O)(=O)c3ccccc3)cc2C1=O
  A = 2	B = 2	C = 1.9	D = i

C[C@@H]1CCCCO[C@H](CN(C)Cc2ccc(C(F)(F)F)cc2)[C@@H](C)CN([C@H](C)CO)C(=O)c2cc(NS(=O)(=O)c3ccc(Cl)cc3)ccc2O1
  A = 1	B = -5	C = 0.8	D = i

COc1ccc(CN(C)C[C@H]2Oc3c(NS(C)(=O)=O)cccc3C(=O)N([C@@H](C)CO)C[C@@H]2C)cc1
  A = -2	B = 2	C = 0.0	D = i

CC(C)NC(=O)N(C)C[C@H]1Oc2c(NC(=O)Nc3ccc(F)cc3)cccc2C(=O)N([C@@H](C)CO)C[C@H]1C
  A = -3	B = 4	C = 2.1	D = i

C[C@H]1CN([C@@H](C)CO)C(=O)c2cc(C#CC3CC3)cnc2O[C@H]1CN(C)S(C)(=O)=O
  A = 7	B = 6	C = -2.7	D = i

C[C@H]1CN([C@@H](C)CO)C(=O)CCCn2cc(nn2)CO[C@H]1CN(C)C
  A = -2	B = 3	C = -0.8	D = i

O=C(C1CCOCC1)N1[C@@H](CO)[C@@H](c2ccccc2)C12CN(CCC(F)(F)F)C2
  A = -2	B = 5	C = -3.6	D = i

COc1ccc(C#Cc2ccc3c(c2)[C@H]2[C@H](CCN2C(=O)CN2CCOCC2)[C@H](CO)N3C)cc1
  A = -5	B = 5	C = 15	D = i

COCC(=O)Nc1ccc2c(c1)OC[C@H](C)N(C(=O)c1ccccc1F)C[C@@H](C)[C@@H](OC)CN(C)C2=O
  A = 3	B = 2	C = 0.3	D = i

# One compound at a time, from the list above. Order of values: rRNA inh HTS, rRNA inh HTS OD600, rRNA inh HTS RFP, FGF22 binding
# `C[C@H](O)C#Cc1ccc2c(c1)O[C@H](CN(C)C(=O)C1CC1)[C@@H](C)CN([C@@H](C)CO)S2(=O)=O` across the screens: 6, -5, 1.4, i
# `COc1ccc(NC(=O)Nc2ccc3c(c2)C(=O)N([C@@H](C)CO)C[C@@H](C)[C@H](CN(C)C(=O)NC(C)C)O3)cc1` across the screens: 0, 6, 0.2, i

# New compounds follow.
# Abbreviations: A = rRNA inh HTS; B = rRNA inh HTS OD600; C = rRNA inh HTS RFP; D = FGF22 binding
Cc1noc(C)c1NC(=O)N(C)C[C@@H]1Oc2ccc(NC(=O)NC3CCCCC3)cc2CC(=O)N([C@@H](C)CO)C[C@@H]1C
  A = 3	B = 6	C = -0.7	D = i

CCC(=O)N1C[C@H](C)[C@H](OC)CN(C)C(=O)c2cc(NC(=O)Nc3ccccc3)ccc2OC[C@@H]1C
  A = -2	B = -1	C = 0.1	D = i

O=C(C[C@H]1C=C[C@@H](NC(=O)C2CCC2)[C@@H](CO)O1)NCc1ccccc1Cl
  A = 2	B = -4	C = -0.9	D = i

C[C@@H]1CCCCO[C@H](CN(C)S(=O)(=O)c2cn(C)cn2)[C@@H](C)CN([C@@H](C)CO)C(=O)c2cc(NS(=O)(=O)c3cn(C)cn3)ccc2O1
  A = 2	B = 9	C = -2.5	D = i

C[C@@H]1CN([C@@H](C)CO)C(=O)c2cccc(NC(=O)NC3CCCCC3)c2O[C@H]1CN(C)Cc1ccc(C(F)(F)F)cc1
  A = 1	B = 0	C = -3.2	D = i

C[C@H](CO)N1C[C@H](C)[C@H](CN(C)CC2CCOCC2)Oc2cc(C3=CCCC3)ccc2S1(=O)=O
  A = -2	B = -3	C = 0.2	D = i

O=C1NC(c2ccc3c(c2)OCO3)c2c(-c3ccccc3)n[nH]c21 (stereo not drawn)
  A = -11	B = -4	C = 4.5	D = i

COc1ccc(S(=O)(=O)Nc2cccc3c2O[C@@H](CN(C)S(=O)(=O)c2ccc(Cl)cc2)[C@H](C)CN([C@@H](C)CO)C3=O)cc1
  A = 0	B = 2	C = -4.5	D = i

C[C@@H]1CN([C@@H](C)CO)C(=O)Cc2cc(NC(=O)Cn3cnnn3)ccc2O[C@H]1CN(C)Cc1ccc(Cl)c(Cl)c1
  A = -21	B = -64	C = 24	D = i

Cc1ccc(S(=O)(=O)N(C)C[C@H]2OCCCC[C@@H](C)Oc3ccc(NC(=O)Nc4ccc(C(F)(F)F)cc4)cc3C(=O)N([C@H](C)CO)C[C@@H]2C)cc1
  A = 5	B = 8	C = -2.3	D = i

CS(=O)(=O)N1[C@@H](C#N)[C@@H](c2ccc(C#CC3CCCCC3)cc2)[C@@H]1CO
  A = 0	B = 0	C = -0.4	D = i

CO[C@@H]1CN(C)C(=O)c2cc(NC(=O)Cc3ccccc3)ccc2OC[C@H](C)N(C(=O)c2ccccc2F)C[C@@H]1C
  A = -4	B = -11	C = -0.9	D = i

C/C=C/c1cnc2c(c1)C(=O)N([C@@H](C)CO)C[C@H](C)[C@H](CN(C)C(=O)NC1CCCCC1)O2
  A = 3	B = 10	C = -2.9	D = i

CCS(=O)(=O)NCC[C@@H]1CC[C@H](NS(=O)(=O)c2cccc(Cl)c2)[C@H](CO)O1
  A = 1	B = 2	C = -2.5	D = i

CCC(=O)N1[C@H](C(=O)NC2CCC2)[C@@H](CO)[C@@H]2Cn3c(ccc(C4=CCCC4)c3=O)[C@@H]21
  A = -1	B = 2	C = 2.8	D = i

# Continued:
# Abbreviations: A = rRNA inh HTS; B = rRNA inh HTS OD600; C = rRNA inh HTS RFP; D = FGF22 binding
CN1CCN(C(=O)C[C@@H]2CC[C@@H](NC(=O)c3ccc4c(c3)OCO4)[C@H](CO)O2)CC1
  A = 1	B = -4	C = -0.7	D = i

C[C@@H]1CN([C@H](C)CO)C(=O)Cc2cc(NC(=O)Nc3ccc(C(F)(F)F)cc3)ccc2O[C@H]1CN(C)S(C)(=O)=O
  A = -2	B = -6	C = -1.6	D = i

Cc1noc(C)c1S(=O)(=O)Nc1ccc2c(c1)C(=O)N([C@H](C)CO)C[C@@H](C)[C@@H](CN(C)Cc1ccc(Cl)c(Cl)c1)O2
  A = -14	B = -39	C = 1.7	D = i

C[C@@H]1CN([C@@H](C)CO)C(=O)c2cc(C#Cc3ccccn3)cnc2O[C@H]1CN(C)Cc1cccnc1
  A = 8	B = 17	C = 1.2	D = i

C[C@H]1[C@@H](c2ccccc2)Oc2ccc(Cl)cc2S(=O)(=O)N1Cc1ccc(Cl)cc1
  A = 1	B = 15	C = -0.8	D = i

C/C=C/c1cnc2c(c1)C(=O)N([C@H](C)CO)C[C@@H](C)[C@@H](CN(C)C(=O)NC1CCCCC1)O2
  A = 6	B = 3	C = -4.3	D = i

C[C@@H]1CN([C@@H](C)CO)C(=O)c2cc(NC(=O)Nc3cccc4ccccc34)ccc2O[C@H]1CN(C)Cc1ccccc1
  A = -4	B = -23	C = 5.1	D = i

C[C@@H]1CN([C@@H](C)CO)C(=O)Cc2cc(NC(=O)Cc3cn(C)c4ccccc34)ccc2O[C@@H]1CN(C)S(=O)(=O)c1ccccc1
  A = -2	B = -3	C = 1.4	D = i

CC=Cc1ccc2n(c1=O)C[C@@H]1[C@@H](CO)[C@H](C(=O)NCC3CC3)[C@H]2N1C(=O)C1CC1 (mixture of isomers)
  A = 2	B = 2	C = -3.5	D = i

CCCNC(=O)N(C)C[C@@H]1Oc2cc(C#CCN(C)C)ccc2S(=O)(=O)N([C@H](C)CO)C[C@@H]1C
  A = -1	B = 5	C = 0.6	D = i

Cc1noc(C)c1S(=O)(=O)Nc1ccc2c(c1)CC(=O)N([C@@H](C)CO)C[C@@H](C)[C@@H](CN(C)C(=O)NC1CCCCC1)O2
  A = 4	B = 5	C = -0.1	D = i

C[C@@H]1CN([C@@H](C)CO)S(=O)(=O)c2ccc(-c3ccccc3F)cc2O[C@H]1CN(C)C(=O)C1CC1
  A = -1	B = -27	C = -2.1	D = i

Cc1ccc(S(=O)(=O)N(C)C[C@@H]2Oc3ccc(NS(C)(=O)=O)cc3CC(=O)N([C@H](C)CO)C[C@H]2C)cc1
  A = -1	B = 0	C = -1.6	D = i

C[C@@H]1CN([C@H](C)CO)C(=O)c2cccc(NC(=O)c3ccc(-c4nccs4)cc3)c2O[C@H]1CN(C)S(=O)(=O)c1ccc(Cl)cc1
  A = -2	B = -6	C = 3.8	D = i

C[C@H]1CNC(=O)c2c(C(=O)N3CCN(c4ccccc4)CC3)ncn21
  A = 15	B = 5	C = 2.0	D = i

# Remaining list, next part
# Abbreviations: A = rRNA inh HTS; B = rRNA inh HTS OD600; C = rRNA inh HTS RFP; D = FGF22 binding
C[C@H](CO)N1C[C@H](C)[C@@H](CN(C)C(=O)Nc2ccc(F)cc2)Oc2ncc(Br)cc2C1=O
  A = 2	B = 6	C = -1.8	D = i

C[C@H]1CN([C@@H](C)CO)C(=O)Cc2cc(NC(=O)Nc3ccc(F)cc3)ccc2O[C@@H]1CN(C)Cc1ccc(Cl)c(Cl)c1
  A = 4	B = 14	C = 1.7	D = i

CNC[C@H]1OCCCC[C@H](C)Oc2ccc(NS(=O)(=O)c3ccc(C)cc3)cc2C(=O)N([C@@H](C)CO)C[C@H]1C
  A = 2	B = 3	C = -1.1	D = i

COc1ccc(CN(C)C[C@H]2Oc3c(NC(=O)Nc4cccc5ccccc45)cccc3C(=O)N([C@H](C)CO)C[C@H]2C)cc1
  A = -4	B = -20	C = 0.5	D = i

N#Cc1cccc(-c2ccc([C@H]3[C@H](CO)N4CCCCN(C(=O)Nc5ccccc5)C[C@@H]34)cc2)c1
  A = -30	B = -55	C = 10	D = i

C[C@@H]1CN([C@@H](C)CO)C(=O)c2cc(NS(=O)(=O)c3ccc(F)cc3)ccc2O[C@H]1CN(C)C
  A = -2	B = 6	C = 1.7	D = i

C[C@@H]1CN([C@@H](C)CO)C(=O)c2cc(NC(=O)Cc3ccccc3)ccc2O[C@@H](C)CCCCO[C@@H]1CN(C)C(=O)Cc1ccccc1
  A = -1	B = -7	C = 0.3	D = i

CN(C)C(=O)c1cccc(-c2ccc([C@@H]3[C@H]4CN(C(=O)Cc5ccccc5)CC(=O)N4[C@H]3CO)cc2)c1
  A = 6	B = 2	C = 2.0	D = i

CO[C@H]1CN(C)C(=O)c2ccc(NC(=O)c3ccccc3)cc2OC[C@H](C)NC[C@H]1C
  A = 1	B = 4	C = 0.5	D = i

O=C(C[C@H]1C[C@H]2c3cc(NS(=O)(=O)c4ccc(F)cc4)ccc3O[C@H]2[C@H](CO)O1)NCc1ccc(Cl)cc1
  A = -5	B = -17	C = 4.8	D = i

C[C@H]1CN([C@@H](C)CO)S(=O)(=O)c2ccc(C#Cc3ccc(F)cc3)cc2O[C@H]1CN(C)S(=O)(=O)c1ccc(F)cc1
  A = -3	B = 11	C = -5.7	D = i

Cc1noc(C)c1S(=O)(=O)Nc1ccc2c(c1)C(=O)N([C@H](C)CO)C[C@H](C)[C@@H](CN(C)Cc1ccc(-c3ccccc3)cc1)O2
  A = 3	B = -8	C = 9.1	D = i

CNC(=O)C[C@@H]1CC[C@@H]2[C@H](COC[C@H](O)CN2C(=O)Nc2ccc(Cl)c(Cl)c2)O1
  A = -54	B = -80	C = -16	D = i

CNC(=O)C[C@H]1CC[C@@H]2[C@@H](COc3ccc(NC(=O)NC(C)C)cc3C(=O)N2C)O1
  A = 0	B = 3	C = -1.6	D = i

CC(C)NC(=O)Nc1ccc2c(c1)C(=O)N([C@H](C)CO)C[C@H](C)[C@H](CN(C)C(=O)Nc1ccccc1)O2
  A = 5	B = 12	C = -1.5	D = i

# Continued:
# Abbreviations: A = rRNA inh HTS; B = rRNA inh HTS OD600; C = rRNA inh HTS RFP; D = FGF22 binding
C[C@@H]1CCCCO[C@@H](CN(C)C(=O)c2ccncc2)[C@@H](C)CN([C@@H](C)CO)C(=O)c2cc(NS(=O)(=O)c3cn(C)cn3)ccc2O1
  A = 2	B = -2	C = -2.0	D = i

N#C[C@@H]1N[C@H](CO)[C@@H]1c1ccccc1
  A = 4	B = 15	C = 0.4	D = i

CO[C@H]1CN(C)C(=O)c2ccc(NC(=O)C3CC3)cc2OC[C@H](C)N(C(=O)CN(C)C)C[C@H]1C
  A = 2	B = 8	C = -1.4	D = i

CO[C@H]1CN(C)C(=O)c2cc(NC(=O)c3ccccc3)ccc2OC[C@@H](C)N(C(=O)C2CC2)C[C@@H]1C
  A = -1	B = 0	C = 0.1	D = i

Cc1noc(C)c1NC(=O)N(C)C[C@H]1OCCCC[C@H](C)Oc2ccc(NC(=O)C3CCCCC3)cc2C(=O)N([C@@H](C)CO)C[C@@H]1C
  A = -2	B = 0	C = 2.0	D = i

COc1ccccc1S(=O)(=O)N[C@H]1C=C[C@H](CC(=O)NCc2cccc(F)c2)O[C@H]1CO
  A = -3	B = 2	C = -2.1	D = i
